# Bioassay records from PubChem BioAssay.
# T cruzi inh: inhibitors of intracellular T. cruzi growth, primary screen, luminescence, NIH3T3 host cells; T. cruzi beta-gal in NIH3T3, 90 h; inhibition, % (concentration not given with the values); actives 1.4% (n = 300,000);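 active means mean inhibition across valid replicates above about 55%, limit read from the data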;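 further: signal also drops with host cell toxicity which is not excluded here; 0% = plate median of DMSO wells and 100% = zero luminescence signal; higher percent means less beta-gal luminescence so fewer parasites; stock transfer was 50 nL into about 50 µL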
# rRNA inh HTS: reduced GFP signal of wild-type E. coli, primary screen, bacterial rRNA inhibitor project, GFP/RFP fluorescence, OD600, single point; actives 1.6% (n = 350,000); E. coli WT GFP vs humanized-ribosome RFP mutants, 24 h; hits give low values; DMSO median 0, no signal -100; GFP signal change (wild-type ribosome), % (test concentration not listed);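 active means significant combined selectivity score with lowered wild-type GFP, culture density cut under 30%, mutant RFP and density less affected; inactive means any of these conditions unmet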; further: one replicate is shown; some compounds called inactive have numbers as strong as hits
# UCH37 DUB inh: inhibitors of human UCH37 deubiquitinase, primary screen, biochemical, Ub-AMC cleavage, fluorescence. inhibition, % (no concentration beside the values). Ubiquitin carboxyl-terminal hydrolase isozyme L5 (Homo sapiens), Q9Y5K5. purified proteasome/UCH37. actives 0.33% (n = 330,000);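 active means mean of two replicates above 20%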;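 further: 0% = compound-free wells with enzyme and 100% = wells lacking proteasome; stock transfer was 100 nL into about 20 µL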
# Target sequence (Q9Y5K5 whole entry, looked up): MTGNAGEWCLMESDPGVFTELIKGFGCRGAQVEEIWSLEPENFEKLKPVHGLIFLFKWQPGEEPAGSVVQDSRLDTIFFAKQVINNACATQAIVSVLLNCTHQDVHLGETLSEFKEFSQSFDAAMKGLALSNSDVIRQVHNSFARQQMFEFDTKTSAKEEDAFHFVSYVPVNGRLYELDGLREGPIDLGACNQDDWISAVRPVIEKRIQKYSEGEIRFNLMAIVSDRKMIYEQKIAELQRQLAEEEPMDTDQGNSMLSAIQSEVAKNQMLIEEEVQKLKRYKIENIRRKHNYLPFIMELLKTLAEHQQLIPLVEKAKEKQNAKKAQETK
#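 Reagent: Ub-AMC substrate; assay system: Proteasome-associated human UCH37 deubiquitinase; controls: no-proteasome and no-compound wells; read-out: % inhibition of Ub-AMC cleavage fluorescence; timing: 30 min preincubation with enzyme, 25 min cleavage at room temperature; signal: AMC fluorescence from Ub-AMC cleavage, excitation 355 nm, emission 460 nm; buffer or medium: Tris-HCl pH 7.4 plus ovalbumin, ATP-MgCl2, DTT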
# Beta apoptosis: inhibitors of cytokine-induced beta cell apoptosis, primary screen, luminescence. INS-1E cytokine-induced death, ATP luminescence, 48 h; percent of positive-control rescue, neutral wells zero. protection from apoptosis, % (test concentration not listed). actives 0.8% (n = 300,000). AID 435005, 2010;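 active means all replicates at 75% or more, or half of them and the mean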;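 further: 0% = cytokine-treated negative control wells and 100% = positive control rescue; higher means more ATP so stronger rescue from cytokine killing; wells of about 40 µL received 100 nL stock; the first replicate is given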
# A1 inh: caspase 3/7 activation in MEF A1-2A-BIM cells, primary screen, A1 inhibitor project, cell-based, luminescence, HTS; Caspase-Glo 3/7 luminescence, 3 h; percent of clofoctol response, vehicle zero; caspase activation, % (no concentration beside the values); actives 0.066% (n = 330,000); AID 2462, 2010;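 active means over half of replicate activation scores above 10%, or exactly half above 10 with the replicate mean above 10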;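 further: wells of about 30 µL received 50 nL stock; many hits fall short of the cut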
# E coli growth: E. coli growth inhibition, primary screen, OD600 | OD600 absorbance (no concentration beside the values) | Escherichia coli growth, 23 h; hits give low values | actives 0.21% (n = 330,000);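 active means OD600 absorbance below the run mean of sample wells minus 3.6 SD, in any replicate, cut at about 0.56 in these data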;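 further: stock transfer was 300 nL into about 60 µL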
# FGF22 binding: binders of human FGF22 protein, primary screen, FGF22 synaptogenesis inhibitor project, biophysical, thermal shift, single point. actives 1.5% (n = 340,000). AID 651658, 2012. calls only at 9.99 µM. recombinant FGF22 thermal shift, SYPRO orange fluorescence; percent of sucrose octasulfate shift, DMSO zero. Fibroblast growth factor 22 (Homo sapiens), Q9HCT0;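 active means melting point raised past a set limit in the mean and every replicate; three in four hits are not shown here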
# Target sequence (Q9HCT0 whole entry, looked up): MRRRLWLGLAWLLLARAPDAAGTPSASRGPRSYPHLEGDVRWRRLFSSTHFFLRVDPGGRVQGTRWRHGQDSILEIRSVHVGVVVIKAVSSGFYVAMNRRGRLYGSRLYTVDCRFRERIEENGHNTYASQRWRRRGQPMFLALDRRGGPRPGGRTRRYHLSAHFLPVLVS
# MLL AF4-AF9 inh: inhibitors of AF4 peptide binding to AF9, primary screen, biochemical, AlphaScreen, biotin-AF4 peptide, FLAG-AF9, single point. actives 0.47% (n = 350,000). AID 651704, 2012. inhibition, % at 10 µM;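 active means every replicate reaching a set inhibition limit, whatever the replicate mean, cut at about 25% in these data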;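 further: 0% = plate neutral control median and 100% = total signal loss; the record names both 10 and 1 µM as test concentration; the first replicate is given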
# Target sequence (P42568 whole entry, looked up): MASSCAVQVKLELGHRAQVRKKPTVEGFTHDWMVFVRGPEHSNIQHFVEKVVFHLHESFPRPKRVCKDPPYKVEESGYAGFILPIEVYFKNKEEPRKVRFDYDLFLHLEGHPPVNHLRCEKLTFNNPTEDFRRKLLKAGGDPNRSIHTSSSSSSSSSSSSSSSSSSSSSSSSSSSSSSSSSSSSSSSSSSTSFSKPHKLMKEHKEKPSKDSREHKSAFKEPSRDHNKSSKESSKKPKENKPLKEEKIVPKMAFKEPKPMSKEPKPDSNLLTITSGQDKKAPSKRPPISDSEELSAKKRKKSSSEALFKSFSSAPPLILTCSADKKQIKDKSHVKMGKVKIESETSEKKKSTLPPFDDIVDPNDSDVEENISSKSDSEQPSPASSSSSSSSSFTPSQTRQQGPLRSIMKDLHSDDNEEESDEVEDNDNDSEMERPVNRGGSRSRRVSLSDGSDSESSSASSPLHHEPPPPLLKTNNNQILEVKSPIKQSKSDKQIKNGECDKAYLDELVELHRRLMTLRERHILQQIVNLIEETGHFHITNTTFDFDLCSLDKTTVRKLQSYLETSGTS
# rRNA inh HTS OD600: also measured in rRNA inh HTS; calls as there; OD600 change, %; measured here: OD600 growth;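 optical density of the mix in the first replicate; 0 = DMSO median and -100 = no signal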
# rRNA inh HTS RFP: recorded beside rRNA inh HTS, whose call it bears; RFP signal change, %; measured here: RFP humanized mutant strains;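 first replicate; 0 = DMSO median and -100 = no signal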
# * hit, by the source's call; i = inactive; . = not tested or not shown; & = joins results of further samples.
# Each structure is followed by: T cruzi inh	rRNA inh HTS	rRNA inh HTS OD600	rRNA inh HTS RFP	UCH37 DUB inh	Beta apoptosis	A1 inh	E coli growth	FGF22 binding	MLL AF4-AF9 inh
[1] CC(/C=N/NC(=O)c1ccco1)=C\c1ccccc1
  -4	-14	-15	-4.1	.	-1	-0.1	.	.	-1.1
[2] Cc1ccc(C)n1-c1cc([N+](=O)[O-])ccc1-n1ccnc1
  46	8	8	-0.3	6.7	-9	0.7	0.68	i	3.0
[3] Cc1cc(NC(=O)CSc2nnc(Cn3c(=O)sc4ccccc43)n2-c2ccccc2C)no1
  9	1	-5	-0.3	-1.2	-6	-0.1	0.76	i	1.0
[4] O=C(C1=C(O)C(=O)N(CCN2CCOCC2)C1c1ccc([N+](=O)[O-])cc1)c1cccs1 (centres undefined)
  -24	.	.	.	2.0	-2	2.7	0.69	.	.
[5] Cc1ccoc1C(=O)NCCNc1ccc(Cl)cc1[N+](=O)[O-]
  3	.	.	.	6.9	-9	0.0	0.69	.	.
[6] O=C(O)C1CCCCC1C(=O)Nc1ccc(F)c(F)c1 (centres undefined)
  -1	2	-2	-1.4	4.5	11	0.1	0.7	i	5.4
[7] O=C(NC1CCCCC1)N1CCC(n2c(=O)[nH]c3ccccc32)CC1
  -2	-5	-2	-8.7	2.1	6	.	0.75	i	-1.7
[8] O=C(CCCCCCC(=O)NCc1ccccc1)NCc1ccccc1
  10	10	10	-1.1	4.6	2	-0.6	0.63	i	2.1
[9] CCOc1ccc(-c2nnc3ccc(SCc4ccc(C(=O)OC)o4)nn23)cc1
  30	.	.	.	-2.9	11	-0.4	0.74	.	.
[10] COc1cccc(/C=N/NC(=O)c2ccc3nc[nH]c3c2)c1O
  9	3	1	5.5	.	3	-0.4	.	i	-12
[11] O=C(Nc1cccc(Cl)c1)c1ccc(NCC2CCCO2)c([N+](=O)[O-])c1 (centres undefined)
  4	.	.	.	3.9	4	-0.3	0.76	i	1.1
[12] CCc1cc2cc3c(cc2nc1SCC(=O)Nc1cc(OC)c(OC)cc1C(=O)O)OCO3
  5	.	.	.	3.1	-1	0.0	0.69	.	.
[13] COc1ccc(CCNC(=S)N(C)C)cc1OC
  -10	6	5	-3.6	1.5	7	0.4	0.68	i	-2.2
[14] COc1ccc(-c2sc3ccccc3c2C#CC2(O)CCCCC2)cc1
  31	11	15	-4.2	-10	-4	0.2	0.73	i	-14
[15] Cc1ccc(-n2[nH]c(C)c(CCC#N)c2=O)cc1
  -13	.	.	.	4.9	-13	1.3	0.67	.	.
[16] COc1ccc(OC)c(NC(=O)c2cccc(Cn3cc(Br)c([N+](=O)[O-])n3)c2)c1
  64*	.	.	.	0.5	.	0.1	0.71	.	.
[17] O=C(NNC(=O)c1cccnc1SCc1cccc([N+](=O)[O-])c1)c1cccnc1
  -17	.	.	.	1.0	-4	-0.3	.	.	.
[18] Nc1c(Cl)cc(C2=NCCn3c2c2ccc([N+](=O)[O-])cc2[n+]3[O-])cc1Cl
  29	-12	-11	-2.3	0.3	18	0.4	0.66	i	1.7
[19] COC(CNC(=O)c1ccc2nc3ccccc3c(=O)n2c1)OC
  -1	2	-3	9.2	i	0	0.4	0.69	i	-1.2
[20] CN(C)c1ccc2c(=O)[nH][nH]c(=O)c2c1
  -16	3	10	-1.4	-19	2	0.2	0.68	i	3.2
[21] CCc1ccc(C(=O)OCC(=O)NCCNC(=O)COC(=O)c2ccc(CC)cc2)cc1
  -9	2	3	-3.0	2.6	-6	0.7	0.65	i	0.0
[22] COCC(C)NS(=O)(=O)c1ccc(NC(=O)C(Cc2ccccc2)NC(N)=O)cc1 (centres undefined)
  -2	.	.	.	3.2	-2	0.4	0.74	.	.
[23] Cc1cccn2c(=O)nc(SCC(=O)NCc3ccc4c(c3)OCO4)nc12
  -2	1	7	-1.2	6.6	-3	-0.7	0.66	i	-10
[24] COc1cccc(OC)c1OC(=O)c1cnccn1
  -7	-3	2	-1.9	1.0	-1	-0.4	0.69	i	2.2
[25] CCOCc1nnc(NC(C)=O)s1
  -7	.	.	.	-0.6	-1	1.1	0.67	.	.
[26] Cc1nn(CC(=O)NCCCc2ccccc2)c(=O)c2cccn12
  -6	.	.	.	1.4	.	-0.7	0.7	.	.
[27] COc1cc(CCCN2CCNC[C@H]2Cc2ccc(O)cc2)cc(OC)c1OC
  -15	2	8	5.0	1.7	6	-0.5	.	i	-1.3
[28] Cc1cccc(C(=O)NNC(=O)c2ccccc2O)c1
  -14	-5	0	-2.4	3.3	.	-2.4	0.65	i	2.3
[29] COC(=O)C(C)Sc1nnc(-c2ccncc2)o1 (centres undefined)
  -8	17	-1	2.8	5.1	-2	0.3	0.71	.	.
[30] CCc1noc(C)c1C(=O)N(CC)CC(=O)Nc1cc(Cl)ccc1C
  .	.	.	.	1.2	2	0.3	0.71	i	1.5

# Results in rRNA inh HTS RFP, for some of the entries so far:
no. | structure | rRNA inh HTS RFP
27 | COc1cc(CCCN2CCNC[C@H]2Cc2ccc(O)cc2)cc(OC)c1OC | 5.0
28 | Cc1cccc(C(=O)NNC(=O)c2ccccc2O)c1 | -2.4

# The results go on:
# Each structure is followed by: T cruzi inh	rRNA inh HTS	rRNA inh HTS OD600	rRNA inh HTS RFP	UCH37 DUB inh	Beta apoptosis	A1 inh	E coli growth	FGF22 binding	MLL AF4-AF9 inh
[31] CC(C)(C)Nc1nc(OCC(F)(F)F)nc(OCC(F)(F)F)n1
  -12	.	.	.	3.9	2	2.0	0.73	.	.
[32] CCOC(=O)c1c(NC(=O)CSc2nnc(Cc3ccccc3)o2)sc(C)c1C
  7	.	.	.	-0.1	-2	0.8	0.72	.	.
[33] Cn1c(=O)n(C)c2cc(NS(=O)(=O)c3ccc4c(c3)CCCC4)ccc21
  -26	.	.	.	3.1	16	0.2	0.64	.	.
[34] O=C(Cc1ccc(-n2cccc2)cc1)NCc1ccccc1Cl
  -29	.	.	.	2.8	3	-0.6	0.71	.	.
[35] S=c1[nH]nc(CNc2ccc(Cl)cc2)n1Cc1ccccc1
  1	-36	-46	-12	5.5	5	1.0	0.67	i	-3.3
[36] Cc1cccc(C(=O)Nc2oc(-c3ccccc3)cc2C#N)c1
  .	.	.	.	-18	-1	-1.3	0.77	.	.
[37] C#CCOCCOCCOCCNc1nc(N2CCN(C(=O)[C@H](Cc3ccc(O)cc3)n3cc(C(N)CC(C)C)nn3)CC2)nc(N2CCN(C(=O)[C@H](CCC(=O)O)n3cc(C(N)[C@H](C)CC)nn3)CC2)n1 (some centres undefined)
  -5	.	.	.	0.2	-10	0.7	.	.	.
[38] COc1ccc(-n2c(CN3CCOCC3)nc3ccc([N+](=O)[O-])cc3c2=O)c(OC)c1
  -7	0	2	-3.1	4.9	4	-2.4	0.69	i	-2.2
[39] Cc1ccc(-c2nnc(CSc3nc4cc5c(cc4cc3C)OCO5)o2)cc1
  26	.	.	.	0.3	7	-0.7	0.7	.	.
[40] O=S(=O)(c1ccc(S(=O)(=O)N2CCN3CCCC3C2)cc1)N1CCCC1 (centres undefined)
  15	.	.	.	3.1	1	-0.4	0.63	.	.
[41] COc1ccc(S(=O)(=O)Nc2cccc3c2O[C@H](CN(C)Cc2ccc(Cl)c(Cl)c2)[C@@H](C)CN([C@H](C)CO)C3=O)cc1
  .	-4&10	-9&5	0.5&-2.9	3.9	5	1.5	.	i	6.6
[42] C=CCNC(=S)/C(=C(/[O-])c1ccccc1Br)[n+]1ccccc1
  -12	5	10	-11	4.4	-2	0.6	0.7	i	-22
[43] CCOc1cc(S(=O)(=O)n2ccc(C)n2)ccc1Br
  7	-4	-9	0.2	4.6	.	0.7	0.75	i	-2.5
[44] CSCCC(NC(=O)c1ccco1)C(=O)Nc1ccc(C)cn1 (centres undefined)
  2	9	-1	1.3	2.6	-2	-1.3	0.65	i	-1.4
[45] Cc1cc(C)nc(SCc2cn3c(C)cccc3n2)n1
  0	-19*	-7.5*	1.5*	4.4	-6	0.4	0.65	i	.
[46] O=C(NCC1CCCO1)c1cc2nc(-c3ccco3)cc(C(F)(F)Cl)n2n1 (centres undefined)
  8	14	-2	10	.	-2	1.0	.	i	-1.2
[47] CN(CC(=O)Nc1ccccc1C(F)(F)F)C(=O)c1ccccc1Sc1ccccc1C#N
  .	0	-7	1.7	1.2	5	0.5	0.6	i	-3.9
[48] O=C1NC(=Nc2ccccc2)SC1Cc1ccccc1 (centres undefined)
  -4	-10	-29	-0.8	-1.6	.	-0.7	0.71	.	-1.4
[49] Cc1cccc(Cn2nc(C(C)(C)C)cc2C(=O)Nc2ccc(F)cc2)c1
  24	4	-16	-1.9	.	30	0.5	.	i	-3.2
[50] CCn1c(=O)c([N+](=O)[O-])c(NCC2CCCO2)c2ccccc21 (centres undefined)
  9	1	-5	2.5	7.3	2	0.4	0.71	i	-2.5
[51] O=C1C2C3C=CC(C3)C2C(=O)N1c1cccc(N2C(=O)C3C4C=CC(C4)C3C2=O)n1 (centres undefined)
  -9	.	.	.	-0.2	0	0.1	0.73	.	.
[52] COCC1=C(C(=O)OC)C(c2cccs2)n2ncnc2N1 (centres undefined)
  -4	-8	-1	1.1	4.4	1	0.1	0.69	i	.
[53] CNC(=O)COC(=O)c1cc(SC)ccc1Cl
  -6	5	-1	0.5	-5.9	-7	-0.3	0.65	i	-2.3
[54] CC(C)(C)C(=O)NC(NC(=S)Nc1sc2c(c1C#N)CCCC2)C(Cl)(Cl)Cl (centres undefined)
  16	.	.	.	8.0	5	-0.3	0.67	.	.
[55] O=C(COc1ccccc1O)N1CCN(C(=O)c2ccco2)CC1
  -27	.	.	.	3.2	-5	-0.2	0.73	.	.
[56] O=C(NCc1ccco1)c1cccc(Nc2nc3ccc(Br)cc3[nH]2)c1
  -13	-57	-79	-16	1.0	6	0.5	0.59	i	2.1
[57] CC(=O)NCCC1CCCCN1Cc1nc(Cc2cccc(C(F)(F)F)c2)no1 (centres undefined)
  -9	-2	0	3.5	2.6	1	-0.2	0.69	i	0.0
[58] Cc1cc(C)nc(SCc2ccc([N+](=O)[O-])cc2)n1
  4	-2	-7	2.2	2.2	-6	0.7	0.65	i	4.2
[59] Cc1ccc(C(C(=O)NC(C)(C)C)N(C(=O)c2csnn2)c2ccccc2F)o1 (centres undefined)
  4	.	.	.	-0.5	-4	1.2	0.62	.	.
[60] CC#C[C@@H](CC)c1ccc2ccn(C)c2c1
  .	15	6	5.6	4.3	-2	-1.8	.	i	-1.1
[61] COc1ccc(OC)c(C(=O)N(C[C@H]2CC[C@@H]([C@@H]3CC[C@H](CO)O3)O2)C(C(=O)NC(C)(C)C)c2ccc(-c3ccccc3)cc2)c1 (some centres undefined)
  .	-2	-1	-1.1	0.4	.	.	0.66	i	3.5

# A portion of the library. The share of hits here may be higher or lower than overall.
